From PubChem
BJeLR viability – kills HRASV12-expressing BJeLR cells | BJeLR (HRASV12) viability, CellTiter-Glo ATP luminescence, 48 h; reference of the scale not given here | inhibition, % (test concentration not listed) | hit rate 0.17% among 300,000;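 active = replicate mean above 50%; inconclusive = above 50% but judged a plate artefact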;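 note: 50 nL library stock added to about 25 µL; numbers are from one replicate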
Mtb hypoxia inh – inhibitors of hypoxia-regulated fluorescent reporter in Mycobacterium tuberculosis; M. tuberculosis hypoxia-regulated fluorescent reporter, fluorescence; fluorescence inhibition, % (concentration not given with the values); hit rate 0.1% among 300,000;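 active = 35 to 45% if threefold the growth effect, above 45% if 1.5-fold the growth effect; inactive = the rest, general growth blockers included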;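 note: wells of about 50 µL received 100 nL stock; 0% = vehicle wells and 100% = reference inhibitor wells; whole bacteria with a GFP reporter of the hypoxia response; strong numbers were not always called active; many hits fall short of the cut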
Sa ugtP lethal – growth inhibition of S. aureus ugtP deletion strain; S. aureus RN4220 ugtP deletion, OD600 growth, 16 h; some inactives read as strong as hits; growth inhibition, % (test concentration not listed); hit rate 0.54% among 330,000; AID 1259309;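 active = z-score under -3 and OD600 up to 0.15 on both plates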;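 note: plate controls were untreated wells for no effect and antibiotic for full effect; wells of about 80 µL received 100 nL stock; the first replicate is given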
Bead autofluor – flagged as autofluorescent in microsphere protease counterscreen; compound autofluorescence counterscreen, microsphere flow cytometry; hits give high values; hit rate 3.1% among 360,000; fluorescence intensity (test concentration not listed);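 active = at least 3 SD above the mean of all compounds, about 16000 in these data; inconclusive = too few beads counted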;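 note: 100 nL of 1 mM stock went into each well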
RN4220 kill – S. aureus RN4220 growth inhibition; OD600, 16 h; inhibition, % (no concentration beside the values); hit rate 0.33% among 330,000; AID 1259311;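 active = z-score of -3 or lower and OD600 up to 0.18 on both plates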;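 note: plate controls were untreated cells for no effect and reference antibiotic for full effect; stock transfer was 100 nL into about 80 µL; one replicate is shown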
PrP 5UTR inh – inhibition of PrP 5' UTR reporter expression; AID 488862; cell-based PrP 5' UTR mRNA reporter, plate reader; hit rate 0.35% among 340,000; inhibition, % (concentration not given with the values);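 active = every replicate at 50% or more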;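 note: 0 = median of the neutral control wells; tested in H4 reporter cells; numbers are from one replicate; inactives centre near -14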
Mtb hypoxia inh growth – second read-out of Mtb hypoxia inh, no call of its own (marks repeat the call); growth inhibition, %; measured here: M. tuberculosis growth (absorbance);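 0% = vehicle and 100% = reference antibiotic; read after six days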
An asterisk follows results filed as active. Rows are unselected. Share with any hit: about 4%.

O=C(CN(Cc1ccco1)Cc1cccs1)N1CCN(S(=O)(=O)c2cccc(F)c2)CC1 was read as Mtb hypoxia inh 4, Sa ugtP lethal 3, Bead autofluor 4475, RN4220 kill 3.8, PrP 5UTR inh -13 and Mtb hypoxia inh growth -5.
C/C(=N\NC(=O)c1ccc([N+](=O)[O-])cc1)c1c(O)cc(C)oc1=O was read as BJeLR viability -8, Bead autofluor 7597 and PrP 5UTR inh -16.
COc1ccc(C(=O)N2CCN(c3ccccc3Cl)CC2)cc1S(=O)(=O)NC1CC1 was read as Mtb hypoxia inh 3, Sa ugtP lethal 2, Bead autofluor 8732, RN4220 kill 0.5, PrP 5UTR inh -4 and Mtb hypoxia inh growth 3.
Screening CC(C)CC(NC(=O)c1nc[nH]c1C(=O)NC1CCN(C(=O)OC(C)(C)C)CC1)C(=O)OCc1ccccc1 (stereo not given) returned Mtb hypoxia inh 7, Sa ugtP lethal -18, RN4220 kill -0.3 and Mtb hypoxia inh growth -2.
COc1cccc(NC(=O)C2C3C=CC4(O3)C2C(=O)N(C2CC2)C4C(=O)NC2CCCCC2C)c1 (stereo not given) was read as BJeLR viability -3, Mtb hypoxia inh 0, Sa ugtP lethal 5, Bead autofluor 3482, RN4220 kill -3.3, PrP 5UTR inh -10 and Mtb hypoxia inh growth 11.
For Cc1ccc(S(=O)(=O)NC2CCSC2=O)cc1C (stereo not given) the results were Mtb hypoxia inh 8, Sa ugtP lethal 11, Bead autofluor 3803, RN4220 kill 4.7, PrP 5UTR inh 75* and Mtb hypoxia inh growth 2.
CCOc1cccc2cc(C(=O)NCc3ccccc3)c(=N)oc12 was read as BJeLR viability 1, Mtb hypoxia inh 13, Sa ugtP lethal 1, Bead autofluor 3710, RN4220 kill 4.0, PrP 5UTR inh -15 and Mtb hypoxia inh growth 13.
OC1(c2ccccc2)C/C(=N\n2cnnc2)C=C1c1ccccc1 (stereo not given) was read as BJeLR viability 13, Bead autofluor 10754 and PrP 5UTR inh -27.
CCOc1ccccc1C(=O)NCC(=O)OCCCOC(=O)CNC(=O)c1ccccc1OCC was read as BJeLR viability 14, Mtb hypoxia inh 14, Sa ugtP lethal 7, Bead autofluor inconclusive, RN4220 kill 2.0, PrP 5UTR inh -12 and Mtb hypoxia inh growth -3.
For CN(Cc1nc(-c2cccs2)no1)CC1COCCO1 (stereo not given) the results were BJeLR viability -2, Mtb hypoxia inh 12, Sa ugtP lethal 9, Bead autofluor 2078, RN4220 kill 3.9, PrP 5UTR inh -45 and Mtb hypoxia inh growth 2.
N#CCCCSc1nnc(-c2ccc(Cl)cc2)n1-c1ccccc1 was read as BJeLR viability 7, Mtb hypoxia inh 10, Sa ugtP lethal 3, Bead autofluor 10366, RN4220 kill 5.9, PrP 5UTR inh -28 and Mtb hypoxia inh growth 8.
`CCC1CCCCN1C(=O)COc1ccc2c(c1)OCO2` (stereo not given) gave BJeLR viability -5, Mtb hypoxia inh 7, Sa ugtP lethal 10, Bead autofluor 4280, RN4220 kill 3.5, PrP 5UTR inh 2 and Mtb hypoxia inh growth 2.
`Cc1ccc(/C=C/C(=O)O)cc1S(=O)(=O)NCCCC(=O)O` gave BJeLR viability -4, Sa ugtP lethal 7, Bead autofluor 4294, RN4220 kill 0.5 and PrP 5UTR inh -14.
`COc1cc(/C=N/NC(=O)CN(Cc2ccco2)S(=O)(=O)c2ccccc2)ccc1O` gave BJeLR viability 6, Bead autofluor 10866 and PrP 5UTR inh -12.
CCOC(=O)N1CCC(NCCNC(=O)c2ccc(F)c(F)c2)CC1 was read as Mtb hypoxia inh 11, Sa ugtP lethal -10, Bead autofluor 3838, RN4220 kill 3.5, PrP 5UTR inh -30 and Mtb hypoxia inh growth 4.
`O=C(CN1CCOCC1)Nc1cccc(C(F)(F)F)c1` gave BJeLR viability 1, Mtb hypoxia inh 11, Sa ugtP lethal 4, RN4220 kill 6.4, PrP 5UTR inh -9 and Mtb hypoxia inh growth 14.
`Cc1cccc(NC(=O)CSc2nnc(NC(=O)c3ccco3)s2)c1` gave BJeLR viability -4, Mtb hypoxia inh 10, Sa ugtP lethal -5, Bead autofluor 4610, RN4220 kill 5.8, PrP 5UTR inh -12 and Mtb hypoxia inh growth 0.
Screening c1csc(CSc2nnc3sc4ccccc4n23)c1 returned BJeLR viability -8, Sa ugtP lethal -6, Bead autofluor 4811, RN4220 kill 6.3 and PrP 5UTR inh -51.
`COc1ccc(Nc2nc3ccccc3c(=O)s2)c(OC)c1` gave BJeLR viability -11, Sa ugtP lethal -11, Bead autofluor 3294, RN4220 kill 4.1 and PrP 5UTR inh -13.
`COc1ccc(CNC(=O)COC(=O)C2CCC(C(C)(C)C)CC2)cc1` (stereo not given) gave BJeLR viability -5, Mtb hypoxia inh 12, Sa ugtP lethal -14, Bead autofluor 2425, RN4220 kill 0.3, PrP 5UTR inh -20 and Mtb hypoxia inh growth 7.
`Cc1cccc(C(=O)Nc2nnc(-c3ccncc3)o2)c1` gave BJeLR viability 6, Mtb hypoxia inh 13, Sa ugtP lethal 9, Bead autofluor 4646, RN4220 kill -1.0, PrP 5UTR inh -13 and Mtb hypoxia inh growth 5.
Screening CCN(CC(=O)NC1CCCCCC1)S(=O)(=O)c1ccccc1 returned BJeLR viability -10, Mtb hypoxia inh 11, Sa ugtP lethal -4, Bead autofluor 3042, RN4220 kill -16, PrP 5UTR inh -10 and Mtb hypoxia inh growth -9.
Screening Cc1c(NC(=O)C23CC4CC(CC(C4)C2)C3)c(=O)n(-c2ccccc2)n1C returned BJeLR viability -12, Mtb hypoxia inh 6, Sa ugtP lethal 13, Bead autofluor 3441, RN4220 kill 4.4, PrP 5UTR inh -19 and Mtb hypoxia inh growth 2.
`CSCCC(NC(=O)c1c(C)oc2c1CCCC2)C(=O)O` (stereo not given) gave BJeLR viability 4, Mtb hypoxia inh 5, Sa ugtP lethal -4, Bead autofluor 4805, RN4220 kill 1.2, PrP 5UTR inh -13 and Mtb hypoxia inh growth 7.

Part of the list above in order of formula weight, falling:
`Cc1cccc(NC(=O)CSc2nnc(NC(=O)c3ccco3)s2)c1` gave BJeLR viability -4, Mtb hypoxia inh 10, Sa ugtP lethal -5, Bead autofluor 4610, RN4220 kill 5.8, PrP 5UTR inh -12 and Mtb hypoxia inh growth 0.
CCOC(=O)N1CCC(NCCNC(=O)c2ccc(F)c(F)c2)CC1 was read as Mtb hypoxia inh 11, Sa ugtP lethal -10, Bead autofluor 3838, RN4220 kill 3.5, PrP 5UTR inh -30 and Mtb hypoxia inh growth 4.
Screening CCN(CC(=O)NC1CCCCCC1)S(=O)(=O)c1ccccc1 returned BJeLR viability -10, Mtb hypoxia inh 11, Sa ugtP lethal -4, Bead autofluor 3042, RN4220 kill -16, PrP 5UTR inh -10 and Mtb hypoxia inh growth -9.
`COc1ccc(Nc2nc3ccccc3c(=O)s2)c(OC)c1` gave BJeLR viability -11, Sa ugtP lethal -11, Bead autofluor 3294, RN4220 kill 4.1 and PrP 5UTR inh -13.
`CSCCC(NC(=O)c1c(C)oc2c1CCCC2)C(=O)O` (stereo not given) gave BJeLR viability 4, Mtb hypoxia inh 5, Sa ugtP lethal -4, Bead autofluor 4805, RN4220 kill 1.2, PrP 5UTR inh -13 and Mtb hypoxia inh growth 7.

Continued.
`O=C(CCNC(=O)c1ccc([N+](=O)[O-])cc1)Nc1cccc(S(=O)(=O)N2CCOCC2)c1` gave Mtb hypoxia inh -6, Sa ugtP lethal 1, Bead autofluor 6364, RN4220 kill 1.0, PrP 5UTR inh 7 and Mtb hypoxia inh growth 4.
Screening C=C(C)C1Cc2c(C)nn(-c3ccccc3)c2C1 (stereo not given) returned BJeLR viability -5, Mtb hypoxia inh 9, Sa ugtP lethal 16, Bead autofluor 3171, RN4220 kill 9.0, PrP 5UTR inh -17 and Mtb hypoxia inh growth 1.
For O=C(CCS(=O)(=O)c1ccc(Br)cc1)NCCc1ccc(Cl)cc1 the results were BJeLR viability 0, Mtb hypoxia inh 6, Sa ugtP lethal 1, Bead autofluor 3552, RN4220 kill -2.3, PrP 5UTR inh -26 and Mtb hypoxia inh growth 4.
Screening CCC(=O)OCn1nnc2ccccc2c1=O returned BJeLR viability 2, Mtb hypoxia inh 1, Sa ugtP lethal 2, Bead autofluor 4278, RN4220 kill 0.8, PrP 5UTR inh -10 and Mtb hypoxia inh growth 6.
Screening NC1=NC(=O)C(=Cc2cccc(-c3ccc(S(N)(=O)=O)cc3)c2)S1 returned Mtb hypoxia inh 6, Sa ugtP lethal 6, RN4220 kill 10 and Mtb hypoxia inh growth 7.
`COc1ccc(Nc2ccc(C(N)=O)cc2[N+](=O)[O-])cc1` gave BJeLR viability 7, Mtb hypoxia inh 10, Sa ugtP lethal 7, Bead autofluor 4081, RN4220 kill 3.3, PrP 5UTR inh -7 and Mtb hypoxia inh growth 1.
Screening O=C(NCC(F)(F)F)Nc1ccccn1 returned BJeLR viability 10, Mtb hypoxia inh 5, Sa ugtP lethal 3, Bead autofluor 19809*, RN4220 kill 2.6, PrP 5UTR inh -6 and Mtb hypoxia inh growth 7.
Cn1c(SCc2ccccc2)nnc1-c1ccc(O)cc1 was read as BJeLR viability -1, Mtb hypoxia inh 9, Sa ugtP lethal 0, Bead autofluor 3951, RN4220 kill 0.9, PrP 5UTR inh -53 and Mtb hypoxia inh growth 3.
For O=C(COC(=O)c1cccnc1Cl)c1ccc(Cl)s1 the results were Mtb hypoxia inh 11, Sa ugtP lethal -2, RN4220 kill 0.8 and Mtb hypoxia inh growth 9.
`C#CCOCCOCCOCCNc1nc(N2CCN(C(=O)[C@H](CCCCN)n3cc([C@@H](N)CO)nn3)CC2)nc(N2CCN(C(=O)[C@H](Cc3ccc(O)cc3)n3cc([C@@H](N)CC(C)C)nn3)CC2)n1` gave BJeLR viability 7, Bead autofluor 4358 and PrP 5UTR inh -23.
Screening CCOc1cccc(C(=O)NC(=S)Nc2ccc(N3CCN(CC)CC3)cc2)c1 returned BJeLR viability 2, Mtb hypoxia inh 22, Sa ugtP lethal 94*, Bead autofluor 4713, RN4220 kill 2.1, PrP 5UTR inh -34 and Mtb hypoxia inh growth 28.
`CC1(C)CC(=O)C=C(c2ccc(Oc3ccccc3)cc2)C1` gave Mtb hypoxia inh 8, Sa ugtP lethal 10, Bead autofluor 3616, RN4220 kill -1.9, PrP 5UTR inh -28 and Mtb hypoxia inh growth 8.
Screening O=C(C[C@H]1C[C@H](C(=O)N2CCCCC2)[C@@]2(CCc3ccccc3)c3[nH]c4ccc(Cl)cc4c3CCN2C1=O)NCCCn1ccnc1 returned Mtb hypoxia inh -4, Sa ugtP lethal -9, Bead autofluor 3624, RN4220 kill -2.4, PrP 5UTR inh -13 and Mtb hypoxia inh growth 18.
O=c1[nH]cnc(O)c1C(c1cccc([N+](=O)[O-])c1)c1c(O)nc[nH]c1=O was read as BJeLR viability 15, Mtb hypoxia inh -6, Sa ugtP lethal 7, Bead autofluor 5779, RN4220 kill 5.1 and Mtb hypoxia inh growth 4.
`COc1ccc(CCC(=O)NNC(=S)NCc2ccc(F)cc2)cc1` gave BJeLR viability -5, Mtb hypoxia inh 1, Sa ugtP lethal 3, Bead autofluor 4236, RN4220 kill 2.4, PrP 5UTR inh -8 and Mtb hypoxia inh growth -2.
For COc1ccc(C(C)=O)cc1CSc1nnc(-c2ccncc2)o1 the results were BJeLR viability -1, Mtb hypoxia inh -9, Sa ugtP lethal 2, Bead autofluor 3777, RN4220 kill -1.2, PrP 5UTR inh -4 and Mtb hypoxia inh growth 1.
COc1cccc(OCC(=O)N2CCN(C)CC2)c1 was read as BJeLR viability 5, Mtb hypoxia inh 17, Sa ugtP lethal 10, Bead autofluor 9894, RN4220 kill 8.3, PrP 5UTR inh -8 and Mtb hypoxia inh growth 6.
`O=C(CCc1nnc(CCCCc2ccccc2)o1)N1CCCC(O)C1` (stereo not given) gave BJeLR viability -5, Mtb hypoxia inh -3, Sa ugtP lethal 10, Bead autofluor 5988, RN4220 kill 6.5, PrP 5UTR inh -11 and Mtb hypoxia inh growth 6.
`COC(=O)C1ON2OC(C(=O)OC)C(C(=O)OC)C2C1CC(C)=O` (stereo not given) gave BJeLR viability -9, Mtb hypoxia inh 9, Sa ugtP lethal 6, Bead autofluor 12851, RN4220 kill 3.2, PrP 5UTR inh -17 and Mtb hypoxia inh growth -11.
Screening CCCNc1c(N)c(=O)c1=O returned BJeLR viability -2, Mtb hypoxia inh 6, Sa ugtP lethal 10, Bead autofluor 3626, RN4220 kill 4.1, PrP 5UTR inh -22 and Mtb hypoxia inh growth 2.
